p53 PUMA act: mutant p53 pathway reactivation | SW480 PUMA-promoter luciferase | activation, % at 9.98 µM | 1.5% of 28,000 active; in the data active means activation above about 52%
Starred values were filed as active, the others as inactive. The list is partial; most or all hits stand in other tables.

A first look:
SMILES	p53 PUMA act
CN1CCN(c2nc3cc(C(F)(F)F)ccc3n3cccc23)CC1	23.4
Cc1noc(C)c1S(=O)(=O)Nc1ccc2c(c1)C(=O)N([C@H](C)CO)C[C@H](C)[C@@H](CN(C)Cc1ccc(C(=O)O)cc1)O2	-5.1
CCCCn1c(SCC(=O)O)nc2ccccc21	7.0
COc1ccc(C(=O)N(Cc2nc(-c3ccc(C)cc3)no2)C2CCCCC2)cc1OC	15.0

The whole of this part (from the top)
SMILES	p53 PUMA act
CN1CCN(c2nc3cc(C(F)(F)F)ccc3n3cccc23)CC1	23.4
Cc1noc(C)c1S(=O)(=O)Nc1ccc2c(c1)C(=O)N([C@H](C)CO)C[C@H](C)[C@@H](CN(C)Cc1ccc(C(=O)O)cc1)O2	-5.1
CCCCn1c(SCC(=O)O)nc2ccccc21	7.0
COc1ccc(C(=O)N(Cc2nc(-c3ccc(C)cc3)no2)C2CCCCC2)cc1OC	15.0
O=c1n(-c2ccccc2)c(=O)n(Cc2ccccn2)n1Cc1ccccn1	-3.0
CN(CCOc1ccc(CC2SC(=O)NC2=O)cc1)c1ccccn1 (stereo not drawn)	-2.9
O=C(CCN1C(=O)C2C3C=CC(C4CC34)C2C1=O)Nc1ccc(Cl)cc1O (stereo not drawn)	-10.6
Cc1ccccc1NC(=O)CSc1nc(Nc2ccccc2)nc(N2CCOCC2)n1	11.0
C[C@H](CO)N1C[C@H](C)[C@@H](CN(C)Cc2ccc(Cl)c(Cl)c2)Oc2ccc(NC(=O)Cn3cnnn3)cc2C1=O	9.2
COc1cc(NC(=O)Cn2nc(C(F)(F)F)c(Br)c2C)cc([N+](=O)[O-])c1	-65.3
C[C@@H]1CN([C@H](C)CO)C(=O)c2cc(NC(=O)Cn3cnnn3)ccc2O[C@H]1CN(C)Cc1ccc(Cl)c(Cl)c1	-5.0
COC(=O)C1=C(C)NC(=O)C1(NS(=O)(=O)c1ccc(C)cc1)C(F)(F)F (stereo not drawn)	-2.9
O=C(Cn1ccc([N+](=O)[O-])n1)N1CCCc2ccccc21	18.9
COC(=O)C1=C(C)NC(C)=C([N+](=O)[O-])[C@H]1c1ccccc1C(F)(F)F	-3.2
CC(C)(C)NCC(O)COc1nsnc1N1CCOCC1 (stereo not drawn)	10.7
COc1ccc(S(=O)(=O)Nc2ccc3c(c2)C(=O)N([C@H](C)CO)C[C@@H](C)[C@H](CN(C)C(=O)NC2CCCCC2)O3)cc1	-1.0
O=C(O)c1ccc(S(=O)(=O)Nc2ccc(O)c(Sc3nc4ccccc4s3)c2)cc1	-11.8
COc1cc([N+](=O)[O-])ccc1NC(=O)NCc1cccnc1	6.4
COc1ccc(-c2cc(C(F)(F)F)nc(SCc3cccc(C(=O)O)c3)n2)cc1	5.2
CC(=O)NC1C(=O)N=C(SC(C)C(=O)Nc2cccc(Cl)c2)NC1=O (stereo not drawn)	-9.1

Quoted at random: 3 compounds from above.
SMILES	p53 PUMA act
O=C(CCN1C(=O)C2C3C=CC(C4CC34)C2C1=O)Nc1ccc(Cl)cc1O (stereo not drawn)	-10.6
COc1ccc(C(=O)N(Cc2nc(-c3ccc(C)cc3)no2)C2CCCCC2)cc1OC	15.0
O=c1n(-c2ccccc2)c(=O)n(Cc2ccccn2)n1Cc1ccccn1	-3.0

Part of the list above, as comma-separated lines.
compound,p53 PUMA act
Cc1ccccc1NC(=O)CSc1nc(Nc2ccccc2)nc(N2CCOCC2)n1,11.0
C[C@H](CO)N1C[C@H](C)[C@@H](CN(C)Cc2ccc(Cl)c(Cl)c2)Oc2ccc(NC(=O)Cn3cnnn3)cc2C1=O,9.2
COc1cc(NC(=O)Cn2nc(C(F)(F)F)c(Br)c2C)cc([N+](=O)[O-])c1,-65.3
C[C@@H]1CN([C@H](C)CO)C(=O)c2cc(NC(=O)Cn3cnnn3)ccc2O[C@H]1CN(C)Cc1ccc(Cl)c(Cl)c1,-5.0

The listing continues:
SMILES	p53 PUMA act
O=c1cc(N2CCOCC2)oc2c(-c3ccccc3)cccc12	-66.6
C=C1C(=C/C=C2\CCC[C@]3(C)[C@@H]([C@H](C)CCCC(C)(C)O)CC[C@@H]23)C[C@@H](O)C[C@@H]1O	13.4
O=C(CSc1nc(Nc2ccccc2)nc(N2CCOCC2)n1)N1CCCC1	4.7
O=C(O)CSc1nnc(C2COc3ccccc3O2)n1-c1ccccc1 (stereo not drawn)	-1.4
O=C(O)CNC(=O)c1ccc(S(=O)(=O)N2CCOCC2)cc1	-5.6
CCCCC(Nc1ncnc2ccccc12)C(=O)O (stereo not drawn)	-7.5
COc1cc(/C=C/CO)ccc1O[C@@H]1O[C@H](CO)[C@@H](O)[C@H](O)[C@H]1O	-14.5
CCCc1oc(C(=O)O)cc1CN1CCOCC1	-22.2
